# Compound activity deposited in PubChem BioAssay by National Center for Advancing Translational Sciences (NCATS).
# LASV entry inh: Lassa virus entry inhibition; Potency, µM (doses to about 49.2 µM), inactives show at the top dose activity change, negative = inhibition, hits mostly inhibitors; actives 4.1% (n = 18,000); Lassa virus pseudotyped entry inhibition, cell-based qHTS; control for the full effect not named in the record; many of its hits are not listed in these tables; active = well fitted inhibition curve with a large enough effect; inconclusive = small, poorly fitted or top-dose-only effect; inactive = no such curve, though single readings can be large or run the other way; tested in HEK293 cells; also: luciferase read-out
# Marburg entry: inhibitors of Marburg virus binding or entry into cells; Marburg virus pseudotype entry/binding inhibition, cell-based; control for the full effect not named in the record; many of its hits are not listed in these tables; Potency, µM (doses to about 49.2 µM), without a hit: at the highest dose activity change, negative = inhibition, actives largely listed as inhibitors; actives 6.5% (n = 18,000); AID 720532; active means well fitted inhibition curve with a large enough effect; inconclusive means small, poorly fitted or top-dose-only effect; inactive means no such curve, though single readings can be large or run the other way; tested in HEK293 cells; also: luciferase read-out
# Starred values were filed as active, the others as inactive; u = inconclusive; x = no result given; & = joins results of further samples; [ ] = remark or other dose. % is scaled to controls: 0 for no effect and ±100 for the full control effect; potency is read from the fitted curve at half-maximal effect. The order is random; 8.2% or so of the library scored in one or more.
# A first look (two entries):
1. CC[C@H](C)[C@H](NC(=O)[C@H](Cc1cnc[nH]1)NC(=O)[C@@H](NC(=O)[C@H](CCCNC(=N)N)NC(=O)[C@H](CCCCN)NC(=O)[C@H](CCCNC(=N)N)NC(=O)[C@H](CCCCN)NC(=O)[C@@H](N)CC(N)=O)[C@@H](C)CC)C(=O)NCC(=O)N1CCC[C@H]1C(=O)NCC(=O)N[C@@H](CCCNC(=N)N)C(=O)N[C@@H](C)C(=O)N[C@@H](Cc1ccccc1)C(=O)N[C@@H](Cc1ccc(O)cc1)C(=O)N[C@H](C(=O)N[C@H](C(=O)N[C@@H](CCCCN)C(=O)N[C@@H](CC(N)=O)C(=O)N[C@H](C(=O)N[C@H](C(=O)NCC(=O)N[C@H](C(=O)N[C@H](C(=O)N[C@@H](CS)C(=O)O)[C@@H](C)CC)[C@@H](C)O)[C@@H](C)CC)[C@@H](C)CC)[C@@H](C)O)[C@@H](C)O
- LASV entry inh: -4.8%
- Marburg entry: -38.8%

2. C=C[C@H](CCCCCC)[C@@H]1C[C@H](CCCCCCCCCCC)O[P@](=O)(OC)O1
- LASV entry inh: x
- Marburg entry: -33.3%

# Results, previewed entries included:
1. CC[C@H](C)[C@H](NC(=O)[C@H](Cc1cnc[nH]1)NC(=O)[C@@H](NC(=O)[C@H](CCCNC(=N)N)NC(=O)[C@H](CCCCN)NC(=O)[C@H](CCCNC(=N)N)NC(=O)[C@H](CCCCN)NC(=O)[C@@H](N)CC(N)=O)[C@@H](C)CC)C(=O)NCC(=O)N1CCC[C@H]1C(=O)NCC(=O)N[C@@H](CCCNC(=N)N)C(=O)N[C@@H](C)C(=O)N[C@@H](Cc1ccccc1)C(=O)N[C@@H](Cc1ccc(O)cc1)C(=O)N[C@H](C(=O)N[C@H](C(=O)N[C@@H](CCCCN)C(=O)N[C@@H](CC(N)=O)C(=O)N[C@H](C(=O)N[C@H](C(=O)NCC(=O)N[C@H](C(=O)N[C@H](C(=O)N[C@@H](CS)C(=O)O)[C@@H](C)CC)[C@@H](C)O)[C@@H](C)CC)[C@@H](C)CC)[C@@H](C)O)[C@@H](C)O
- LASV entry inh: -4.8%
- Marburg entry: -38.8%

2. C=C[C@H](CCCCCC)[C@@H]1C[C@H](CCCCCCCCCCC)O[P@](=O)(OC)O1
- LASV entry inh: x
- Marburg entry: -33.3%

3. N[C@H](C(=O)O)[C@@H]1[C@@H](C(=O)O)C1(F)F
- LASV entry inh: -2.9%&-3.9%
- Marburg entry: 7.0%&11.1%

4. OC(CCCN1CCCCC1)(c1ccccc1)c1ccccc1
- LASV entry inh: -26.2%
- Marburg entry: u

5. O=C(O)COc1ccc2ccccc2c1
- LASV entry inh: 5.7%
- Marburg entry: 3.3%

6. CCC1(CC)C(=O)NC(=O)NC1=O
- LASV entry inh: -14.9%
- Marburg entry: -4.6%

7. O=C(NCc1cccnc1)c1cnn(-c2ncc3c(n2)-c2ccccc2CCC3)c1C1CC1
- LASV entry inh: -22.2%
- Marburg entry: -11.4%

8. O=CN1CCc2c([nH]c3ccccc23)C1c1cccc2cccnc12 (stereo not given)
- LASV entry inh: -24.0%
- Marburg entry: u

9. CCC(C)N(Cc1ccc(OC)cc1OC)S(=O)(=O)c1cc(Br)ccc1Br (stereo not given)
- LASV entry inh: -10.2%
- Marburg entry: u

10. CN1C/C(=C/c2ccc(B(O)O)cc2)C(=O)/C(=C/c2ccc(B(O)O)cc2)C1
- LASV entry inh: 12.6µM*
- Marburg entry: 6.31µM*

11. C[C@H]1CC[C@@H]2N(C1)C[C@H]1[C@@H]3C[C@H]4[C@@H](CC(=O)[C@H]5C[C@@H](O)CC[C@@]54C)[C@@H]3CC[C@H]1[C@]2(C)O
- LASV entry inh: -4.5%
- Marburg entry: u

12. CC(C)(C)Nc1oc(-c2ccccc2)nc1-c1ccccc1
- LASV entry inh: -9.5%
- Marburg entry: -2.1%

13. COC(=O)N1CCN(C(=O)Cc2ccc(Cl)c(Cl)c2)C(CN2CCCC2)C1 (stereo not given)
- LASV entry inh: 0.3%
- Marburg entry: u

14. COC(c1ccc2c(c1)CN(C(=O)Cn1nc(C)c3ccccc3c1=O)CCO2)C1CCCCC1 (stereo not given)
- LASV entry inh: -11.2%
- Marburg entry: -3.9%

15. CCCCC/C=C\C[C@@H]1O[C@H]1/C=C/C(O)C/C=C\CCCC(=O)O (stereo not given in full)
- LASV entry inh: 1.3%
- Marburg entry: -14.4%

16. CC(C)OC(=O)C(O)(c1ccc(Cl)cc1)c1ccc(Cl)cc1
- LASV entry inh: u
- Marburg entry: u

17. CCCCCCC(C)(C)c1ccc([C@@H]2C[C@H](O)CC[C@@H]2CCCO)c(O)c1
- LASV entry inh: u
- Marburg entry: u

18. O=C1OC2(c3cc(Br)c(O)cc3Oc3c2cc(Br)c(O)[c]3[Hg])c2ccccc21 (stereo not given)
- LASV entry inh: -27.5%[17.8 µM]
- Marburg entry: -22.2%[17.8 µM]

19. Cc1cc(C)nc(S[C@H]2C[C@@H](C(=O)N3CCN(c4ccccc4F)CC3)N(Cc3ccccc3F)C2)n1
- LASV entry inh: u
- Marburg entry: -0.1%

20. O=C(Nc1ccc(C(=O)N2CCCCC2)cc1)C1CCC1
- LASV entry inh: 9.5%
- Marburg entry: 18.2%

21. CCOC(=O)CN1C(=O)NC(c2ccccc2)C(C(C)=O)=C1C (stereo not given)
- LASV entry inh: -18.5%[8.59 µM]
- Marburg entry: u

22. Cc1ccc2[nH]c(-c3ccc(F)cc3F)cc(=O)c2c1
- LASV entry inh: 5.3%
- Marburg entry: -16.4%

23. COC(=O)C1=COC(O[C@H]2OC(CO)[C@H](O)C(O)C2O)[C@H]2C1C(=O)C[C@@H]2C (stereo not given in full)
- LASV entry inh: -3.6%
- Marburg entry: 0.8%

24. CCCCCCCCCCCCCCCCCCO
- LASV entry inh: 7.5%
- Marburg entry: 3.9%

25. Cc1cccc(C2=NN(c3ccccc3)[C@H](CO)[C@H]2C)c1
- LASV entry inh: -13.9%
- Marburg entry: 15.8%

26. O=C1OCCN1C(=O)[C@H]1[C@H](c2ccc(F)cc2)C(c2ccccc2)=NN1c1ccc(Br)cc1
- LASV entry inh: -12.8%
- Marburg entry: u

27. CC[C@H](C)C(=O)O[C@H]1CCC=C2C=C[C@H](C)[C@H](CC[C@@H]3C[C@@H](O)CC(=O)O3)[C@H]21
- LASV entry inh: -17.0%
- Marburg entry: 15.3%

28. OCCCNCc1cc2cc3c(cc2nc1N1CCN(c2cccc(Cl)c2)CC1)OCO3
- LASV entry inh: -20.6%
- Marburg entry: -10.3%

29. NCC1O[C@@H](O[C@H]2C(O)C(O[C@@H]3C(O[C@H]4OC(CO)C(O)C(O)C4N)C(N)CC(N)[C@H]3O)O[C@@H]2CO)C(N)C(O)C1O (stereo not given in full)
- LASV entry inh: 5.9%
- Marburg entry: 2.0%

30. CC(=O)C1=C(C)N(CC2CC2)C(=O)N[C@H]1c1cccs1
- LASV entry inh: 5.7%
- Marburg entry: -7.5%

31. CC1C(=O)N(Cc2cn(Cc3ccco3)nn2)CCS(=O)(=O)N1Cc1ccc(-c2cccc(CO)c2)cc1 (stereo not given)
- LASV entry inh: -19.8%
- Marburg entry: -18.8%

32. FC(F)OC(Cl)C(F)(F)F (stereo not given)
- LASV entry inh: 23.3%
- Marburg entry: 14.3%

33. NC(=NCc1ccc(Cl)cc1Cl)NC(=O)c1nc(Cl)c(N)nc1N
- LASV entry inh: -8.3%&2.1%
- Marburg entry: u

34. CC[C@H](C)[C@H](NC(=O)[C@H](Cc1ccccc1)NC(=O)[C@H](C)NC(=O)[C@H](CC(=O)O)NC(=O)[C@H](CCCCN)NC(=O)[C@H](CO)NC(=O)[C@@H]1CCCN1C(=O)[C@@H]1CCC(=O)N1)C(=O)NCC(=O)N[C@@H](CC(C)C)C(=O)N[C@@H](CCSC)C(N)=O
- LASV entry inh: -4.0%
- Marburg entry: -8.9%

35. NCCCNCCCCNCCCN
- LASV entry inh: -17.9%&0.6%
- Marburg entry: u

36. O=C1O[C@@H]2[C@@H](O)[C@H](O)O[C@@H]2[C@H]1O
- LASV entry inh: -12.7%
- Marburg entry: 8.3%

37. CCCS(=O)(=O)NCc1c(C)ncc2c1CCN(C(=O)/C=C/c1ccccc1)C2
- LASV entry inh: 14.1%
- Marburg entry: -7.6%

38. CCS(=O)(=O)Nc1cc(C(=O)N2CCC[C@H]2CO)c2c(c1)nc(-c1ccccc1)n2C
- LASV entry inh: -5.3%
- Marburg entry: 8.1%

39. O=S1(=O)c2ccc(Br)cc2N2CCC[C@@H]2CN1C1CC1
- LASV entry inh: 36.1%[activator]
- Marburg entry: u

40. FCOC(C(F)(F)F)C(F)(F)F
- LASV entry inh: 0.7%
- Marburg entry: 22.4%

41. COCC=CC1=CC2=CC(=O)C(C)(OC(=O)c3cnc4ccccc4n3)C(=O)C2=CN1Cc1ccc(OC)cc1 (stereo not given)
- LASV entry inh: 10.7%[8.59 µM]
- Marburg entry: -2.4%[8.59 µM]

42. CCCCCCCCCCCCCCCCOC[C@@H](COP(=O)([O-])OCC[N+](C)(C)C)OC(C)=O
- LASV entry inh: 0.0%&-1.4%
- Marburg entry: -18.5%

43. CNC(=O)[C@H]1O[C@@H](n2cnc3c(NCc4cccc(I)c4)nc(Cl)nc32)[C@H](O)[C@@H]1O
- LASV entry inh: u
- Marburg entry: -20.7%

44. CCCCc1nc2c(c3c1C[C@H](C)OC3)CN(C(=O)C1CCCCC1)CC2
- LASV entry inh: -16.1%[8.59 µM]
- Marburg entry: -33.6%[8.59 µM]

45. O=S1(=O)[C@H]2C[C@H]3O[C@]2(CN1Cc1ccc(C(F)(F)F)cc1)[C@@H]1O[C@@H]13
- LASV entry inh: 51.6%[activator]
- Marburg entry: 3.6%

46. COC(=O)CCCC1=CC2=CC(=O)C(C)(O)C(=O)C2=CO1 (stereo not given)
- LASV entry inh: -7.5%
- Marburg entry: -27.2%

47. C=CC1=C2C=C(C3CC3)N(C3CCCC3)C=C2C(=O)C(C)(OC(=O)c2ccco2)C1=O (stereo not given)
- LASV entry inh: -3.7%[8.59 µM]
- Marburg entry: 21.1%[8.59 µM]

48. O=C(O)c1cc(=O)c2c3nc4ccccc4oc-3cc(=O)c2[nH]1
- LASV entry inh: u
- Marburg entry: 25.1%

49. CCOC(=O)C(C(=O)c1ccccc1)[C@H](CCc1ccccc1)NC(=O)OC (stereo not given in full)
- LASV entry inh: -13.7%
- Marburg entry: -20.8%

50. COCCN(C)C(=O)c1cnn(-c2nccc(-c3cc(OC)ccc3OC)n2)c1C
- LASV entry inh: 3.1%
- Marburg entry: -23.0%

51. C=CC1CC(C=C)OP(=O)(OC[C@H](C)[C@@H](O[Si](C)(C)C(C)(C)C)[C@@H](C)C=C)O1 (stereo not given in full)
- LASV entry inh: 17.3%
- Marburg entry: 48.9%[activator]

52. COc1cc(=O)n2c(c1C(=O)NCc1ccco1)CCN(Cc1ccccc1)CC2
- LASV entry inh: -7.4%
- Marburg entry: -19.4%

53. NC1(C(=O)O)CC1
- LASV entry inh: 0.0%&2.6%
- Marburg entry: 3.9%&1.3%

54. COc1cc(CCN2C(=O)N[C@@H](c3ccccc3)C(C(C)=O)=C2C)cc(OC)c1OC
- LASV entry inh: 0.8%
- Marburg entry: -4.6%

55. COc1ccc2[nH]c(-c3ccccc3)cc(=O)c2c1
- LASV entry inh: -12.1%
- Marburg entry: -29.5%

56. COC(=O)c1ccc(CN2CCC3(CCC(CNC(=O)c4ccco4)O3)CC2)cc1 (stereo not given)
- LASV entry inh: -2.0%
- Marburg entry: 1.2%

57. COc1cc(=O)n2c(c1C(=O)NC(C)c1ccco1)CCN(Cc1ccnc3ccccc13)CC2 (stereo not given)
- LASV entry inh: -6.7%
- Marburg entry: 14.7%

# Full records as entered above. Values in the order: LASV entry inh	Marburg entry
# COC(=O)c1ccc(CN2CCC3(CCC(CNC(=O)c4ccco4)O3)CC2)cc1 (stereo not given) as listed: -2.0%	1.2%
# COc1cc(=O)n2c(c1C(=O)NC(C)c1ccco1)CCN(Cc1ccnc3ccccc13)CC2 (stereo not given) as listed: -6.7%	14.7%
# COc1cc(CCN2C(=O)N[C@@H](c3ccccc3)C(C(C)=O)=C2C)cc(OC)c1OC as listed: 0.8%	-4.6%
# COc1cc(=O)n2c(c1C(=O)NCc1ccco1)CCN(Cc1ccccc1)CC2 as listed: -7.4%	-19.4%
# COc1ccc2[nH]c(-c3ccccc3)cc(=O)c2c1 as listed: -12.1%	-29.5%
